H5N1 CPE: MDCK cell protection from H5N1 avian flu; inhibition, % at 50 µM; 96,000 compounds, 0.07% hits; cytopathic effect, luminescence, 72 h; active compounds read high; no value below 0 was filed and about half of the inactive calls have no number; reference of the scale not given here; in the data active = inhibition above about 25%
Numbers without * were called inactive; i = inactive. These rows are one share of the data, so the mix of outcomes need not match the whole.

SMILES | H5N1 CPE
N#Cc1c(NC(=O)Cn2cnc3ccccc3c2=O)oc(-c2ccccc2)c1-c1ccccc1 | 0.8
CCOc1ccc(/C(O)=C2/C(=O)C(=O)N(CCOCCO)C2c2ccc(F)cc2)cc1 (stereo unspecified) | 0.7
CCn1c(Cc2ccc(OC)cc2)nnc1SCC(=O)NC1CCCCC1 | 0.5
O=C(CSc1nc2ncccc2[nH]1)NCc1ccccc1 | 0.3
COC(=O)C1=C(C(=O)OC)SC2(S1)C(C(=O)OC)=C(C(=O)OC)SC1=C2c2cc(C)ccc2NC1(C)C | 1.1
Cc1ccccc1NC(=S)NNC(=O)c1ccoc1C | i
O=C(N/N=C/c1cccc(Oc2ccccc2)c1)c1ccccc1Br | i
COc1ccc(/C=C2\SC(=O)N(CCNC(=O)C3CC(=O)N(c4ccccc4)C3)C2=O)cc1 (stereo unspecified) | i

SMILES | H5N1 CPE
O=C1c2ccccc2S(=O)(=O)N1CC(O)COc1ccc(Br)cc1 (stereo unspecified) | 0.9
C=CCNc1nc(C)nc(OC)n1 | 0.6
Cc1nc(SCn2nnc3ccccc3c2=O)nc(C)c1C | 0.5
COc1ccccc1NC(=O)Cn1c(=O)n2nc(C)nc2c2ccccc21 | 3.0
Cc1cc(NC(=O)CSc2ccc3nnc(-c4ccccn4)n3n2)no1 | 3.3
O=C(c1ccc2c(c1)OCCO2)C1CCN(S(=O)(=O)c2cccc(F)c2)CC1 | i
O=S(=O)(c1cccc2c(S(=O)(=O)N3CCCC3)cccc12)N1CCCC1 | i
Cc1c(C)[n+](=O)c(-c2ccco2)c(C)n1[O-] | i

SMILES | H5N1 CPE
CC(=O)C(=Nc1ccc(Cl)cc1Cl)NNc1cccc(Cl)c1 | 11
CCOC(=O)C1=C(N)Oc2ccccc2C12C(=O)N(CC(=O)OC)C(CC(=O)OC)=C2C(=O)OC (stereo unspecified) | i
C=CCOC(=O)C1=C(C)Nc2nnnn2C1c1cccc(OC)c1OC (stereo unspecified) | 3.2
CCOC(=O)C1(C)NC(c2ccc(OC)cc2OC)C2C(=O)N(c3cccc(OC)c3)C(=O)C21 (stereo unspecified) | 0.1
COc1c(C)cc(Br)cc1C(=O)Nc1cccc(NC(=O)c2ccco2)c1 | 0.6
CC(NC(=O)Nc1ncccn1)(C(F)(F)F)C(F)(F)F | i
Cc1ccc(C(=O)N/N=C\c2cccn2C)cn1 | i
CCNc1nnc(-c2ccncc2)s1 | 1.0

SMILES | H5N1 CPE
CCc1ccc(-c2nn(-c3cc(Cl)ccc3[N+](=O)[O-])c(=O)c3ccccc23)cc1 | 0.6
COC(=O)C1C2C=CC3(CN(Cc4ccco4)C(=O)C13)O2 (stereo unspecified) | i
O=S(=O)(c1cc(Cl)ccc1Cl)N1CC2CCCN2c2ccc(C(F)(F)F)cc21 (stereo unspecified) | i
Cc1onc(-c2ccccc2)c1C(=O)NCc1ccc2c(c1)OCO2 | 0.1
COc1ccc(/C=C/C(=O)NCc2cn(C)nc2C)cc1COc1ccc(Cl)cc1Br | i
CCCS(=O)(=O)N1CCCC(C(=O)NCCCN(Cc2ccccc2)C(C)C)C1 (stereo unspecified) | i
CCN(Cc1ccccc1)C(=O)c1cc2c(=O)oc3ccc(C)cc3c2s1 | 1.4
CC(=O)Nc1ccc(S(=O)(=O)N2CCN(c3cc(C)nc4ccccc34)CC2)cc1 | 1.1

SMILES | H5N1 CPE
COc1ccc(C(=O)NCCNC(C)=O)cc1S(=O)(=O)NCc1ccc(Cl)cc1 | 1.0
CNC(=O)N(O)C1N(C)C(=O)N(CC(=O)OC)C1(C)C (stereo unspecified) | 0.2
CCC(=O)Nc1ccc(NC(=O)c2cccc(OC)c2)nc1 | i
Cc1ccc(NC(=O)CCC(=O)c2cccs2)cc1 | i
CCOC(=O)c1nn(-c2ccc(Cl)cc2)c2nc(Nc3ccccc3)cc(=O)n12 | 1.6
O=C(NCC1CCCCC1)C1CCCN(C(=O)NC2CCCCC2)C1 (stereo unspecified) | 0.2
CCOC(=O)c1cc(NC(=O)N2CCCCC2)c(C)nc1C | 0.2
Cc1cccc(S(=O)(=O)Nc2cccc(-c3cn4ccsc4n3)c2)c1 | 0.8

Reformatted: three of the compounds above.
> COc1ccc(C(=O)NCCNC(C)=O)cc1S(=O)(=O)NCc1ccc(Cl)cc1
  H5N1 CPE = 1.0
> CNC(=O)N(O)C1N(C)C(=O)N(CC(=O)OC)C1(C)C (stereo unspecified)
  H5N1 CPE = 0.2
> CCC(=O)Nc1ccc(NC(=O)c2cccc(OC)c2)nc1
  H5N1 CPE = i

New compounds follow
SMILES | H5N1 CPE
CCOC(=O)C(CCc1nnc(N)s1)C(=O)OCC | i
CC(=O)N1CCc2cc(Br)cc(S(=O)(=O)N3CCN(C(=O)c4ccco4)CC3)c21 | 1.5
Cc1nnc(SCc2nc3ccccc3[nH]2)s1 | 0.1
C=C(C)Cn1c(N2CCN(CC)CC2)nc2c1c(=O)[nH]c(=O)n2C | i
O=c1c2ccccc2[nH]c(=S)n1CCCN1CCOCC1 | 1.1
CCCC(=O)Nc1ccc(NC(=O)c2cccs2)cn1 | 0.8
COc1ccc(-c2cc3ccccc3n2CC(O)Cn2nc(C)cc2C)cc1 (stereo unspecified) | 2.0
N#CCC(=O)Nc1ncn(Cc2ccccc2Cl)n1 | i

Gathered by group, those above with two or more sulfur atoms
SMILES | H5N1 CPE
COC(=O)C1=C(C(=O)OC)SC2(S1)C(C(=O)OC)=C(C(=O)OC)SC1=C2c2cc(C)ccc2NC1(C)C | 1.1
O=S(=O)(c1cccc2c(S(=O)(=O)N3CCCC3)cccc12)N1CCCC1 | i
Cc1cccc(S(=O)(=O)Nc2cccc(-c3cn4ccsc4n3)c2)c1 | 0.8
Cc1nnc(SCc2nc3ccccc3[nH]2)s1 | 0.1

Continuation:
SMILES | H5N1 CPE
Cc1cc(N(C)C)c(C#N)c(N2CCOCC2)n1 | i
CCN1CCN(Cc2ccccc2NC(=O)Nc2ccc(C)cc2)CC1 | i
COc1ccc(N(CC(=O)Nc2ccccc2C(=O)NCc2ccco2)S(C)(=O)=O)cc1 | i
COc1cccc(NC(=O)c2ccccc2SC)c1 | i
CCS(=O)(=O)N1CCC(C(=O)NCC2CCCO2)CC1 (stereo unspecified) | 0.1
O=C(NC1CCCCC1)NC1CC2CCC(C1)N2C(=O)NCc1ccccc1 (stereo unspecified) | i
COc1ccc(CCNS(=O)(=O)c2ccc3c(c2)CCN3C(=O)CCC(=O)O)cc1OC | 2.9
OC(COCc1ccccc1)CN1CCN(c2ccccc2F)CC1 (stereo unspecified) | i

SMILES | H5N1 CPE
Nc1c(-c2ccccc2)n[nH]c1-c1ccccc1 | i
CN(C)c1ccc(NC(=O)c2cccc(N3C(=O)CCC3=O)c2)cc1 | i
CC(C)Nc1nc(NC(C)(C)C)nc(Oc2ccc(=O)n(-c3ccccc3)n2)n1 | i
Cc1ccc2c(c1)N(CCC(=O)NC1CC1)C(=O)C(C)O2 (stereo unspecified) | i
CC(C)(C)c1ccc2c(c1)N(CC(=O)O)C(=O)CO2 | i
O=C(NCc1ccc(OC(F)(F)F)cc1)C1CC(c2ccccc2[N+](=O)[O-])=NO1 (stereo unspecified) | 2.4
CN1CC(c2ccccc2Cl)C2(COc3ccccc3C2=O)C12C(=O)Nc1ccccc12 (stereo unspecified) | i
COc1ccc(C(=O)Nc2nc3ccccc3[nH]2)cc1S(=O)(=O)N1CCCC1 | i
CCCCC(c1nnnn1Cc1ccco1)N1CCN(c2nc3ccccc3s2)CC1 (stereo unspecified) | i
CN1C(=O)N(S(=O)(=O)c2ccc(F)c(F)c2F)C(=O)C1(C)C | i
CCC(Sc1nc(N)c(NC(=O)c2ccc(OC)c(OC)c2)c(=O)[nH]1)C(=O)OC (stereo unspecified) | 0.5
CSc1nsc(SCCN2C(=O)c3ccccc3C2=O)n1 | i
O=C(OCc1ccccc1)Oc1cncc(C(=O)O)c1 | i
Nc1nonc1/C(=N/O)N1CCN(CCO)CC1 | i
COc1cc(C2N(c3ccccc3)CCN2c2ccccc2)cc(OC)c1OC | i
CCn1cc(CNC(=O)CCSc2nc(-c3ccco3)cc(C(F)(F)F)n2)cn1 | i
C=CCNC(=O)C1CCN(c2c([N+](=O)[O-])cc(C(F)(F)F)cc2[N+](=O)[O-])CC1 | 0.8
Cc1ccc(S(=O)(=O)/N=C2/NC(=O)/C(=C/c3cccnc3)S2)cc1 | 0.3
COc1ccc(C(CNC(=O)c2cccc(Br)c2)N2CCCC2)cc1 (stereo unspecified) | 11
Cc1cc(C(=O)CSc2nnc(-c3ccc(Cl)cc3)n2CC2CCCO2)c(C)n1C (stereo unspecified) | 1.2

SMILES | H5N1 CPE
CC(=O)N/C(=C/c1ccc2c(c1)OCO2)C(=O)NCCCO | 1.1
CCc1nc(N)c(C#N)c(-c2cccnc2)c1C | 0.8
Cc1ccccc1NC(=O)Cn1nnc2c(cnn2-c2ccc(F)cc2)c1=O | 0.3
O=C1C=C(O)CC(c2ccc(Cl)cc2)C1 (stereo unspecified) | 0.1
CCC1Oc2ccc(C)cc2N(CC(=O)N2CCN(c3ccc(F)cc3)CC2)C1=O (stereo unspecified) | 2.2
CCOc1ncnc2c1oc1nc(CC(C)C)c3c(c12)CC(C)(C)OC3 | 1.7
O=C(NCc1ccccn1)c1c(Cl)cccc1Cl | 0.2
Cc1ccc(Nc2nc(=O)[nH]nc2C)cc1 | 0.1
Cc1cc(=O)n(C)c(=O)n1CCCNc1ccccc1 | 0.1
CCOC(=O)C(C(=O)Nc1cccc(C)c1)C1CCCCC1 (stereo unspecified) | i
COc1ccccc1NC(=O)C1=C(C)NC(SCC(=O)c2ccccc2)=C(C#N)C1c1ccco1 (stereo unspecified) | 3.3
CCN(CC)S(=O)(=O)c1ccc(C(=O)NCCc2cc3c(OC)ccc(OC)c3[nH]c2=O)cc1 | i
CC(C)(C)N(NC(=O)Nc1ccc(Cl)c(Cl)c1)C(=O)c1ccccc1 | 4.9
c1ccc2c(c1)NC1(CCCCC1)n1c-2nc2ccccc21 | 0.1
O=C(NCc1cccnc1)C1CC2c3ccccc3C1c1ccccc12 (stereo unspecified) | i
Fc1ccc(-c2ccnc3nc(-n4cccc4)nn23)cc1 | 7.5
CC(Oc1ccccc1Cl)c1nnc(N)s1 (stereo unspecified) | 0.1
CCOc1ccc(N(CC(=O)N2CC=C(c3ccccc3)CC2)S(=O)(=O)c2c(C)noc2C)cc1 | 2.0
N#Cc1cnn(-c2ncnc3sc4c(c23)CCCC4)c1N | 0.4
COc1cc(C2NC(=S)NC(c3ccccc3)=C2C(C)=O)cc(Cl)c1OCC(=O)O (stereo unspecified) | 1.4

Of the compounds above, these have a CF3 group.
SMILES | H5N1 CPE
CC(NC(=O)Nc1ncccn1)(C(F)(F)F)C(F)(F)F | i
O=S(=O)(c1cc(Cl)ccc1Cl)N1CC2CCCN2c2ccc(C(F)(F)F)cc21 (stereo unspecified) | i
O=C(NCc1ccc(OC(F)(F)F)cc1)C1CC(c2ccccc2[N+](=O)[O-])=NO1 (stereo unspecified) | 2.4
CCn1cc(CNC(=O)CCSc2nc(-c3ccco3)cc(C(F)(F)F)n2)cn1 | i
C=CCNC(=O)C1CCN(c2c([N+](=O)[O-])cc(C(F)(F)F)cc2[N+](=O)[O-])CC1 | 0.8

(cont.)
SMILES | H5N1 CPE
COc1cc(/C=N\n2cnnc2)ccc1OCC(=O)Nc1ccc(C)cc1 | i
CCCCCCOc1ccc(N2C(=O)CC(N3CCN(C(=O)c4ccco4)CC3)C2=O)cc1 (stereo unspecified) | i
Cc1ccc(S(=O)(=O)NCCN(CCNS(=O)(=O)c2ccc(C)cc2)S(C)(=O)=O)cc1 | i
O=C(Nc1ccc(Cn2cccn2)cc1)c1ccc(COc2ccccc2Br)cc1 | 0.2
O=C(Cn1cnc2ccccc2c1=O)NCCC(=O)N1CCN(Cc2ccccc2)CC1 | 6.3
CCOc1ccc(Oc2cc(NC(=O)c3ccco3)cc([N+](=O)[O-])c2)cc1 | i
O=C(OCCN1CCCCC1)c1ccccc1Cl | i
Nn1c(SCC(=O)NC2CCCC2)nnc1-c1ccccc1F | i
CC(C)CC(NC(=O)OC(C)(C)C)C(=O)NCc1ccccc1 (stereo unspecified) | i
COc1ccc(-c2nnc(SC(C)C(=O)NCc3ccc4c(c3)OCO4)n2Cc2ccco2)cc1 (stereo unspecified) | i
CCCCOC(=O)C1=C(C)Nc2nnnn2C1c1ccc(OC)c(OC)c1OC (stereo unspecified) | 0.7
CCN(C(=S)Nc1ccccc1F)C1CCCCC1 | i
O=C1NC(=O)N(C2CCCCC2)C(=O)C1C1c2ccccc2C(=O)N1Cc1ccccc1 (stereo unspecified) | i
CC(C)C(NC(=O)CC12CC3CC(CC(C3)C1)C2)C(=O)O (stereo unspecified) | i
O=C(NCCC1=CCCCC1)C1CCCN(S(=O)(=O)c2ccccc2)C1 (stereo unspecified) | 0.4
CC1CCN(S(=O)(=O)c2ccc(NC(=O)c3cccs3)cc2)CC1 | i
Cc1ccc(Oc2nc(-c3ccccc3)ncc2S(C)(=O)=O)cc1 | 0.3
CC1CCN(C(=O)/C(=C/c2ccccc2Cl)c2ccccc2)CC1 | 1.1
Nc1nnc(CC(c2ccccc2)c2ccccc2)s1 | 1.2
Cc1ccc(Cn2nnc(C(=O)Nc3cccc(C)c3C)c2N)cc1 | i

SMILES | H5N1 CPE
COc1ccc(C)cc1S(=O)(=O)N(C)CC(=O)Nc1ccc2c(c1)OCO2 | 1.3
Cc1ccc(O)c(CNc2nc3ccccc3n2C)c1 | 3.8
Cc1ccc(C(=O)CSc2nc3ccccc3c(=O)n2N)o1 | 3.5
CC(C)c1cc(-c2n[nH]c(=S)n2Cc2ccccc2)cs1 | 0.2
CC1(C)CC(=O)C2=C(C1)N(c1ccc(F)cc1)C(=O)CC2c1ccccc1 (stereo unspecified) | 1.3
COc1ccccc1Nc1nc(N)nc(CN2CCN(c3ccccc3F)CC2)n1 | 0.9
c1ccc(Nc2n[nH]nc2-c2ccccc2)cc1 | 1.1
CCCCN(CC)CCNc1c(N2CCN(C(=O)OCC)CC2)c(=O)c1=O | i
CCn1c2ccccc2c2cc(NC(C)=O)ccc21 | i
CCC1S/C(=C(\C#N)C(=O)NCc2ccco2)N(c2ccc(Br)cc2)C1=O (stereo unspecified) | i
CC(C)c1ccc(CN2CCC(C(=O)NCc3cccnc3)CC2)cc1 | 0.0
O=C(CCc1ccc(S(=O)(=O)NCc2ccccc2)cc1)NCc1ccc2c(c1)OCO2 | i
COc1cccc(NC(=O)COC(=O)CCCc2c[nH]c3ccccc23)c1 | i
COc1cc(CNc2ccc3[nH]c(=O)[nH]c3c2)ccc1OCC(=O)NC(C)(C)C | i

From PubChem BioAssay
